YopH inh = YopH (Yersinia) phosphatase inhibition | AID 898 | fluorescence Ex485/Em525 | hit rate 0.16% among 140,000 | inhibition, %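 (about 10 µM by stock and volumes)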;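 active = inhibition of 50% or more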;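 also: controls were vehicle for no effect and minimum signal wells for full effect; inactives centre near -20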
Arbovirus anti = arbovirus infection inhibition; arbovirus infection cell-based antiviral screen; inhibition, % at 10 µM; hit rate 0.37% among 200,000; AID 1251;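 active = inhibition from about 30%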;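 also: bluetongue infection of BSR cells; cell survival read as ATP light after 72 h; 0% = infected wells without compound and 100% = uninfected wells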
Mtb H37Rv = M. tuberculosis H37Rv growth inhibitors, H37Rv strain (AID 1626); M. tuberculosis H37Rv growth inhibition; higher % means a stronger effect; hit rate 0.95% among 220,000; inhibition, % at 10 µM, or IC50 in µM where a hit was titrated;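 active = confirmed in a dose series; inconclusive = inhibition above 80% but not taken into the dose series; inactive = below 80% or under 30% at every dose of the series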;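 also: bacteria incubated seven days before Alamar blue readout; 0% = bacteria only wells and 100% = bacteria with antibiotic wells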
Mtb bLac sens = beta-lactam sensitization of Mtb H37Rv; hit rate 0.27% among 330,000; M. tuberculosis H37Rv growth with meropenem, percent inhibition; hits of this screen are not shown here; inhibition, % at 25 µM;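 active = about 74% or more and at least 40 points above the plate without the antibiotic, then above 30% in a dose series; inconclusive = first-round hits that could not be retested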;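 also: growth measured after seven days incubation then overnight dye step; 0% = bacteria only wells and 100% = bacteria with antibiotic; twin plates without the antibiotic show which effects depend on it; some results filed as inactive read as strong as hits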
RecA intein inh = blocks M. tuberculosis RecA intein splicing; cell-free RecA intein splicing, fluorescence; inhibition, %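 (about 9 µM by stock and volumes)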; hit rate 0.75% among 290,000; in the data active = inhibition above about 30%; inconclusive = no clear call, values can overlap the other calls;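 also: 0% = vehicle wells and 100% = reference inhibitor control wells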
Target sequence (P9WHJ3 whole entry, looked up): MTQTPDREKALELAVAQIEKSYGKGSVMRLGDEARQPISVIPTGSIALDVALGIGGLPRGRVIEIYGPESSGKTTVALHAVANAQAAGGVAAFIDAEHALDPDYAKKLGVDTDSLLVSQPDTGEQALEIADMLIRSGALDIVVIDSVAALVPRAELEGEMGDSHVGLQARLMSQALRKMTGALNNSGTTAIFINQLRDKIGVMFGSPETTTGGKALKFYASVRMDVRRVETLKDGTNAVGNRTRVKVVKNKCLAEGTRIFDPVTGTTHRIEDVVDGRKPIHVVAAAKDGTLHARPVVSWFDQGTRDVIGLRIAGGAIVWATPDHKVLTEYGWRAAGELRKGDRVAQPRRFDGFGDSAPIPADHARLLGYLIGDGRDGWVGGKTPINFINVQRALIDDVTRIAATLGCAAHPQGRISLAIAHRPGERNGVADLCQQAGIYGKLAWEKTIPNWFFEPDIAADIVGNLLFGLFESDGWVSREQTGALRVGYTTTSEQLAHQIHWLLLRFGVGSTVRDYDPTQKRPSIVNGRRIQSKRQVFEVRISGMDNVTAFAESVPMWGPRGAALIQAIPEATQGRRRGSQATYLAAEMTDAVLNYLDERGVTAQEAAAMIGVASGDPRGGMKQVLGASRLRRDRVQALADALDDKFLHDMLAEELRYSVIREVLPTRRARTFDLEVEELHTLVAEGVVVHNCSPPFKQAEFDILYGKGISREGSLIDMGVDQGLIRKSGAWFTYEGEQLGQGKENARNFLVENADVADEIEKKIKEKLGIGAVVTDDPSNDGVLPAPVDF
Arbovirus anti repeat = further read-out of Arbovirus anti, marked with its call; inhibition, %; measured here: 10K subset replicate screen; many hits read low in the repeat;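 first of two repeat runs on a subset; 0% = infected and 100% = uninfected wells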
* hit, by the source's call; ? = inconclusive; / = not tested or not shown. The list is partial. The share of hits here may be higher or lower than overall.

SMILES	YopH inh	Arbovirus anti	Mtb H37Rv	Mtb bLac sens	RecA intein inh	others
CCOC(=O)c1cc(-c2ccccc2)sc1NC(=O)C(C)C	-15	-5	7%	10	2.6
CC(C)c1nnc(SCC(=O)NC(C)(C)C)n1C	/	0	1%	2	0.4
O=C(CSc1ncccn1)N1CCCc2ccccc21	/	1	-9%	0	-3.2
CC(C)(C)n1ncc2c(=O)n(CC(=O)N3CCCC3)cnc21	/	5	6%	10	3.3
Cc1nc2sccn2c(=O)c1Br	-15	-7	-1%	2	-0.2
COc1cc2oc(-c3ccc(O)cc3)cc(=O)c2c(OC)c1O	/	/	13%	/	-9.6
CCn1c(SCC(=O)Nc2ccccc2Br)nnc1-c1cnccn1	/	/	/	5	-2.5
COCCN1C(=O)/C(=C/c2cc3c(cc2Br)OCO3)NC1=S	/	-4	-7%	-4	-1.6
O=C(NC(=O)N1CCCc2ccccc21)c1ccccc1	/	23	0%	1	0.7
Cc1cc(NC(=O)CSc2nc3c(c(=O)n2-c2ccc(Br)cc2)SCC3)no1	6	-13	16%	-5	/
CCCCC(CC)CNC(=O)C1CCCN(S(=O)(=O)c2cnc[nH]2)C1 (stereo not given)	-10	3	-12%	-3	/
COc1ccc(NC(=O)CN(c2ccc(C(C)C)cc2)S(=O)(=O)c2c(C)noc2C)cc1OC	-22	5	-7%	0	0.0	Arbovirus anti repeat=-4
O=C(OCC(CO)OC(CO)n1ccc(=O)[nH]c1=O)c1ccccc1 (stereo not given)	-13	-3	4%	0	-0.8
O=C(CSc1nc2cc(Cl)ccc2o1)c1cccs1	-24	4	-12%	95	2.7
CCc1c(C)sc(NC(=O)c2cccs2)c1C#N	-5	-3	1%	-2	-8.7
Cc1cc(C2=NNC(=NC3CC3)SC2)c(C)n1-c1c(C)n(C)n(-c2ccccc2)c1=O	-23	6	4%	-4	/
O=C(CCN1C(=O)c2ccccc2C1=O)N1CCC(c2ccccc2)C1 (stereo not given)	-30	10	-4%	1	0.0
COC(=O)c1cc(S(=O)(=O)NCC2CCN(Cc3cc(C)ccc3C)CC2)c[nH]1	/	/	/	4	-1.3
CCOC(=O)COc1cccc2c(=O)n(CC(=O)NCc3ccc(F)cc3)ccc12	/	/	-9%	-2	-1.2
O=C(Cc1ccc(Br)cc1)NCCN1CCOCC1	/	/	/	1	-1.5
CS(=O)(=O)N(Cc1ccccc1)c1ccccc1C(=O)O	-4	-1	-16%	0	-3.8
CCOc1ccc(N=Cc2c(O)n(C(C)(C)C)c(=O)[nH]c2=O)cc1	-27	-6	<0.2µM*	97	-66
CCOC(=O)c1nn(-c2ccccc2C)c2nc(-c3ccc(Cl)cc3)c(C#N)c(=O)n12	-21	1	-1%	2	-2.2
CCC1=NN(C(=O)c2ccc(Br)cc2)C(O)(c2ccc(C)cc2)C1 (stereo not given)	-12	-16	57%	5	2.6
O=C(/C=C/c1ccccc1)NCCN1CCOCC1	-13	3	-2%	-4	-0.6
Cc1ccc(NC(=O)CN2C(=O)C3C4C=CC(C4)C3C2=O)cc1 (stereo not given)	/	7	-3%	-5	5.4
Cc1ccc(CNC(=O)CS(=O)Cc2nc(-c3cccs3)oc2C)cc1 (stereo not given)	0	-3	12%	2	2.5	Arbovirus anti repeat=1
Cc1ccc(S(=O)(=O)N2CCN(Cc3ccco3)CC2)c(C)c1	/	/	/	-11	-6.2
O=C(c1ccccc1)N1CCCC(C(=O)N2CCCCC2)C1 (stereo not given)	/	/	/	0	-0.1
COC(=O)c1cc(C(=O)c2ccc(Cl)cc2)n2c(=O)/c(=C\N(C)C)sc12	/	10	4%	1	5.5
O=C(Nc1ccc(Br)cc1F)C1CCCN(S(=O)(=O)c2cnc[nH]2)C1 (stereo not given)	-50	7	-1%	1	/	Arbovirus anti repeat=2
CCCS(=O)(=O)N1CCN(Cc2ccncc2)CC1	-28	-5	2%	-11	-2.1
Cc1cc(NC(=O)CSc2nc3cc(Cl)ccc3o2)no1	/	/	/	97	-2.0
Cn1c(CC(=O)NCCO)c(Sc2ccccc2)c2ccccc21	-17	6	1%	-1	-5.5
COc1ccc(/C=N/NC(=O)CNc2ccc(Br)cc2)c(C(=O)O)c1OC	/	15	-7%	-1	0.7
O=C(C1CCCCC1)N1CCC(n2nnc3ccccc32)CC1	-17	-1	-10%	5	0.0
COc1ccccc1-c1nnc(SCC(=O)N2CCOCC2)o1	-23	1	2%	6	5.3	Arbovirus anti repeat=1
Cc1ccc(S(=O)(=O)NC(C(=O)N2CCOCCOCCOCCOCC2)C(C)C)cc1 (stereo not given)	/	/	/	-5	1.7
Cc1cccc(NS(=O)(=O)c2cc(C(=O)NCc3ccccn3)ccc2C)c1	/	/	/	-6	0.0
CCc1ccc(NC(=O)[C@H](C)NC(=O)C2CCN(C(=O)[C@@H](N)CC(C)C)CC2)cc1	/	/	/	3	-0.8
COc1ccccc1CN1CCNC(=O)C1CC(=O)NCCCn1cccn1 (stereo not given)	/	3	2%	-5	-3.0
CC(Sc1nccn1C)C(=O)Nc1ccc(C(N)=O)cc1 (stereo not given)	/	/	/	-7	0.6
CCOc1ccc(C(CC(=O)O)NC(=O)C23CC4CC(CC(C4)C2)C3)cc1OC (stereo not given)	/	-1	-4%	-12	-1.6
CCCN(CC#CCO)CCC	-10	-3	-2%	-4	-1.7
CCOc1ccc(NC(=S)NCc2ccc3[nH]c(C)cc3c2)cc1	/	-5	1%	68	/
CC1(C)CC(N=C2C([N+](=O)[O-])=CC=C3C2=NC2(CCCCC2)N3O)CC(C)(C)N1	/	/	-4%	-11	/
Cc1ccc(NC(=O)c2cc(C)no2)cc1	/	/	/	-2	-0.5
O=C(NCCNCCO)C1(C(F)(F)F)C/C(=C\Cc2ccccc2)CCCO1 (stereo not given)	/	/	-11%	-6	-3.4
CCOC(=O)N1CCC(NC(=O)CSCc2nc(-c3ccc(OCC)cc3)oc2C)CC1	/	/	/	5	0.4
CC(=O)NC(Cc1ccc(F)c(F)c1)C(=O)NC1CCN(C(=O)c2ccc(C)cc2)CC1 (stereo not given)	/	1	-4%	3	0.9
O=C(NCc1cccnc1)c1ccccc1Br	0	3	-4%	-9	-0.8
O=C(CSc1ncnc2c1oc1ccccc12)Nc1ccc2c(c1)OCCO2	-20	-3	-8%	0	0.8
O=C(COC(=O)c1ccccc1S(=O)(=O)N1CCCCC1)NCC(F)(F)F	-22	-2	-2%	-7	-2.3
CSc1nnc(SCC2=NNC(=O)SC2)s1	-13	3	-4%	-8	1.6
Cc1ccc2c(c1)SC1=NC(c3ccccc3)(C(F)(F)F)NC(=O)N12 (stereo not given)	-23	0	/	-10	4.0
COc1ccc(/C=C(\NC(=O)c2cccs2)C(=O)NN)cc1OC	/	/	/	-3	5.1
CC(C)(C)CC(=O)NCCc1csc(-c2ccccc2)n1	/	/	3%	-4	4.1
CCc1ccccc1NS(=O)(=O)c1ccc2c(c1)C(C)(C)C(=O)N2C	/	/	/	1	3.0
Cc1c(NC(=O)OCCNC(=O)Nc2ccccc2)sc(=S)n1C	-37	5	-1%	-6	-0.2
Cc1cccc(N(Cc2cc3ccccc3[nH]c2=O)C(=O)c2ccco2)c1C	/	/	4%	-1	-0.6

More records.
SMILES	YopH inh	Arbovirus anti	Mtb H37Rv	Mtb bLac sens	RecA intein inh	others
O=C1CNC(=O)N1c1ccc(Cl)cc1	/	/	/	0	-1.0
CC(C(=O)Nc1ccc(F)c(F)c1F)N(C)CCOc1ccccc1 (stereo not given)	/	/	/	3	3.4
CCCC(=O)Nc1ccc(Cl)c(NC(=S)NC(=O)C(C)C)c1	/	4	7%	3	-0.2
COc1ccccc1NC(=O)CN1C(=O)COc2ccc(S(=O)(=O)N3CCCCCC3)cc21	/	/	/	3	-2.0
COc1ccc(CNC(=O)c2ccccc2SC)cc1	-5	2	10%	24	-1.6
OC(CN1CCCCC1)CN1CCCCC1	19	6	-7%	?	0.5
Cc1ccccc1CNc1ccc(C(CC(N)=O)NC(=O)c2ccccc2)cc1[N+](=O)[O-] (stereo not given)	/	/	-3%	-13	2.3
Cc1ccc(S(=O)(=O)NC(=O)NC(C)(C)C)cc1	-23	1	-5%	2	-3.9
COc1ccc(/C=N/NC(=O)c2ccco2)cc1Cn1nc(C)cc1C	-12	-2	8%	-3	2.5
O=C(c1ccc(Cl)c(S(=O)(=O)N2CCCCC2)c1)N1CCCCCC1	/	/	/	-2	2.2
CC(C)C(OC(=O)c1cccs1)C(=O)NCc1ccccc1 (stereo not given)	/	-1	7%	-1	-0.2
COc1ccc(S(=O)(=O)N(C)c2ccc(C(=O)NCc3ccccn3)cc2)cc1OC	/	/	/	4	-0.4
CC(C)(C)NC(=O)CN(C(=O)CCC(=O)Nc1nccs1)c1ccc2c(c1)OCCO2	/	/	/	-2	-4.1
COC(=O)c1cc(CSc2nnc(-c3ccccc3)c(-c3ccccc3)n2)oc1C	-3	-8	14%	-10	3.8
Cc1ccc(C2C(C#N)=C(N)OC3=C2C(=O)CCC3)s1 (stereo not given)	/	-2	-6%	3	9.4
COc1ccc(OC)c(N/C(=N/c2nc(C)cc(C)n2)NC(C)=O)c1	/	/	6%	-6	1.3
NS(=O)(=O)c1ccc(CCNC(=O)COC(=O)/C=C/c2ccc(Cl)cc2)cc1	/	2	1%	-5	3.9
Clc1cccc(CSc2nnc([C@@H]3CCCN3)o2)c1	-30	-3	-4%	12	-1.0	Arbovirus anti repeat=-5
COc1ccc(/C=N/N2CCOCC2)cc1OCc1ccccc1	/	-5	7%	-1	/
CCOC(=O)N1CCC(N2Cc3cccc(C(=O)Nc4ccc(OCC)cc4)c3C2=O)CC1	/	/	/	4	1.1
O=C(c1ccc(CNS(=O)(=O)c2cccc(Cl)c2)cc1)N1CCCCC1	/	/	/	-1	-4.1
C/C(=N/NC(=O)c1ccncc1)c1ccc2c(c1)OCO2	/	/	/	98	0.9
Cc1c(Cl)cccc1NC(=O)CN1CCC(C(O)(c2ccccc2)c2ccccc2)CC1	-37	-26	53%	98	14
COc1cc(OC)c(NC(C)C(=O)NCc2ccccc2)cc1Cl (stereo not given)	/	2	8%	89	3.1
S=c1[nH]nc(-c2cccnc2)n1/N=C/C(Cl)=C\c1ccccc1	-16	8	11%	4	2.5
Cc1ccccc1C(=O)Nc1ccc(-c2nnc(SC(C)C(=O)O)n2C)cc1 (stereo not given)	/	/	-10%	-3	-1.3
CCCCCCCCCCCCOC1OC(CO)C(O)C(O)C1NC(C)=O (stereo not given)	-22	11	11%	3	0.9
CC(C)(C)c1nc2ccccc2[nH]1	-3	1	-15%	-14	-1.9
COC(=O)c1ccc(Oc2nc(SC)nc(N(C)C)n2)cc1	/	/	7%	-6	1.1
N#CCCN1CCN(S(=O)(=O)c2ccc(S(=O)(=O)N3CCCCCC3)cc2)CC1	-24	2	-4%	?	-0.2	Arbovirus anti repeat=1
COc1ccc(N2CC(C(=O)N[C@@H](C)C(=O)N3CCCCC3)CC2=O)cc1 (stereo not given in full)	/	/	/	-5	-0.4
COc1cccc(CC2(CO)CCN(Cc3ccc4cccc(F)c4n3)CC2)c1	/	8	3%	0	2.3
Cc1ccc(N(C(=O)C(F)(F)F)C(C(=O)NC2CCCCC2)c2cccs2)cc1C (stereo not given)	-34	0	11%	7	-1.4
COc1ccc(S(=O)(=O)N2CCN(CCO)CC2)cc1-c1nnc2c3ccccc3c(C)nn12	-41	2	5%	-1	-3.2	Arbovirus anti repeat=7
Cc1cc(NC(=O)CSc2ccc3nnc(CCNS(=O)(=O)c4ccccc4)n3n2)no1	/	-1	4%	0	-1.1
COc1ccc(CCNC(=O)c2ccc(Cl)c(S(=O)(=O)N(C)c3ccccc3)c2)cc1	-20	5	5%	5	1.3
Cc1cc(C)nc(N2CCC(C(=O)Nc3nnc(C)s3)CC2)n1	-57	7	7%	14	-5.5
O=C(C1CCCN1S(=O)(=O)c1ccc(Br)cc1)N1CCOCC1 (stereo not given)	/	-1	-14%	-1	0.6
Cc1nn(-c2ccccc2)c(NC(=O)C(C)C)c(-c2ccccc2)c1=O	/	/	-2%	-10	-2.1
COc1cc(-c2noc(CCCC(=O)Nc3cccnc3)n2)cc(OC)c1OC	/	/	-3%	-5	0.7
COc1ccc(-c2cc3c(=O)n(CC(=O)N4CCCCC4)ncn3n2)cc1	/	/	/	3	0.0

As a working copy, part of the list above.
SMILES	YopH inh	Arbovirus anti	Mtb H37Rv	Mtb bLac sens	RecA intein inh	others
COc1cccc(CC2(CO)CCN(Cc3ccc4cccc(F)c4n3)CC2)c1	/	8	3%	0	2.3
Cc1ccc(N(C(=O)C(F)(F)F)C(C(=O)NC2CCCCC2)c2cccs2)cc1C (stereo not given)	-34	0	11%	7	-1.4
COc1ccc(S(=O)(=O)N2CCN(CCO)CC2)cc1-c1nnc2c3ccccc3c(C)nn12	-41	2	5%	-1	-3.2	Arbovirus anti repeat=7

Source: PubChem BioAssay (several laboratories)
